Mtb growth = Mycobacterium tuberculosis H37Rv growth inhibition, cell based, confirmatory dose response (AID 1949); most inactive calls were filed without a number and no value below 0 was filed; one-dose inhibition, % at 10 µg/mL; IC50 in µg/mL for titrated hits; 100,000 compounds, 1.6% hits;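 active = confirmed in a dose series; inconclusive = about 50% or more but not retested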;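 also: bacteria grown 7 days with compound before Alamar blue readout; 0% = untreated bacteria and 100% = reference antibiotic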
An asterisk follows results filed as active; i = inactive; ? = inconclusive.

no.	SMILES	Mtb growth
1	O=C(CN1C(=O)CN(c2ccc(Br)cc2)C1=O)Nc1ccc2ccccc2c1	i
2	CC(C)C(NC(=O)c1cccs1)C(=O)NC1=NCCS1 (stereo not drawn)	i
3	CC(=O)Nc1cccc(-c2nnc(SCC(=O)Nc3cccc(C)c3C)n2C)c1	0.4%
4	O=C(Nc1ccc(N2CCOCC2)c2nonc12)c1ccc2c(c1)OCO2	i
5	CC(C)Oc1ccc(C(=O)Nc2ccc(F)cc2)cc1	0.1%
6	Cc1ccc2nc(/C(C#N)=C/c3cn(Cc4ccc(Cl)c(Cl)c4)c4ccccc34)[nH]c2c1	24.2%
7	CCN1CCN(C(=O)CCSc2ccc(C)cc2)CC1	i
8	COC(=O)c1ccc(C(=O)OC)c(NC(=O)Cc2ccc(C)cc2)c1	i
9	COC(=O)C1=CN(Cc2ccc(OC)c(OC)c2)C=C(C(=O)OC)C1c1cccs1	9.4%
10	O=[N+]([O-])c1ccccc1-c1ccc(NC(=S)NCC2CCCO2)cc1 (stereo not drawn)	i
11	Cc1ccc(-c2nnc(SCc3ccc(Br)cc3)o2)cc1	i
12	COc1ccccc1NC(=O)COc1ccc2oc3c(c2c1)CCCC3	i
13	CCOc1ccc(NC(=S)Nc2cc(C(=O)OC)ccc2C)cc1	i
14	CC(CC(=O)Nc1nnc(CC(C)(C)C)s1)c1ccccc1 (stereo not drawn)	i
15	COc1c(F)c(F)c(C(=O)Nc2ccccc2N2CCN(C(=O)C(C)C)CC2)c(F)c1F	i
16	CCOC(=O)c1c(NC(=O)Cn2cnc3sc(C)c(C)c3c2=O)sc(C)c1C	i
17	O=C(Cc1ccc(Cl)cc1)N1CCN(c2ccccc2)CC1	1.2%
18	CC(C)CNS(=O)(=O)c1ccc(OCC(=O)N2CCCCCC2)c(Cl)c1	i
19	Cc1cc(-c2csc(Nc3ccccn3)n2)ccc1F	i
20	CS(=O)(=O)N(CC(=O)NC1CCCCCC1)c1ccccc1Br	i
21	CC1CCCN(C(=O)c2ccncc2)C1 (stereo not drawn)	1.4%
22	O=C(CSc1nc(N2CCOCC2)nc(N2CCOCC2)n1)N1CCN(c2ccccc2)CC1	i
23	Nc1nc(Nc2ccc(Cl)cc2)nc2ccccc12	3.9%
24	COc1ccc(C(=O)NC2(C(F)(F)F)NC(=O)N(C)C2=O)cc1OC (stereo not drawn)	i
25	C=CCOc1cccc(CNc2cccc(C(=O)O)c2)c1	i
26	CCOC(=O)c1c(NC(=O)COc2ccccc2OC)sc2c1CCC2	0.5%
27	Cc1ccc2oc(C(=O)Nc3sc4c(c3C(=O)NCc3cccnc3)CCCC4)c(C)c2c1	i
28	O=C(Cc1ccc(Cl)cc1)Nc1nc2ccccc2s1	i
29	CCOc1ccc2nc(SCC(=O)Nc3nc(OC)cc(OC)n3)sc2c1	i
30	CCC(CC)c1nnc(NC(=O)Cc2ccc(OC)cc2)s1	i
31	CCCOc1ccc(Br)cc1CO	0.5%
32	O=C(Nc1ccc2c(c1)C(=O)OC2)c1cncc(Br)c1	i
33	CCCCC(=O)Nc1cc(C)c(Cl)cc1OC	1.0%
34	CC(=O)Oc1ccc2oc(C)c(C(=O)Oc3ccc4cc(-c5nc6ccccc6o5)c(=O)oc4c3)c2c1	?
35	CCOc1ccc(C(=O)NC(=S)Nc2nc(-c3ccc(C)cc3)cs2)cc1Cl	i
36	O=C1CC(c2ccccc2)N=C(SCC(=O)Nc2ccc(Cl)cc2)N1 (stereo not drawn)	i
37	C#CCOc1ccc(CNCc2ccccc2)cc1OCC	0.8%
38	CCSc1ccccc1C(=O)Nc1ccc(Cl)c(Cl)c1	i
39	CC(=O)Nc1ccc(C(=O)NC2CCCCC2)cc1Cl	i
40	Cc1cc(C)c(C)c(OCC(=O)NCC2CCCO2)c1 (stereo not drawn)	i
41	CCCCn1nnc(NC(=S)NC(=O)c2ccc(-c3cccc(Cl)c3Cl)o2)n1	i
42	CC(=O)N1N=C(c2ccc(C)o2)CC1c1ccc([N+](=O)[O-])cc1 (stereo not drawn)	i
43	c1ccc2[nH]c(CN3CCCCCC3)nc2c1	i
44	Cn1cnc2c1c(=O)n(Cc1cccc(F)c1)c(=O)n2C	i
45	Cc1ccc(S(=O)(=O)Nc2ccc3nc(-c4ccc(C)o4)[nH]c3c2)cc1	i
46	CCc1cccc(CC)c1NC(=O)c1cccc([N+](=O)[O-])c1	i
47	Cc1ccc(OCC(=O)Oc2ccccc2C)c(Br)c1	i
48	O=C(NCCCc1ccccc1)c1c(F)c(F)c(F)c(F)c1F	i
49	CCCOc1ccc(C(N)=O)cc1OC	0.7%
50	CCc1ccc(CCC(=O)Nc2ccc(OC)cc2)o1	?

The listing continues:
no.	SMILES	Mtb growth
51	Nc1cc(=O)[nH]c2nnc(SCc3ccccc3)n12	i
52	Cc1ccc(C(=O)Oc2ccc(C(C)C)cc2)cc1	i
53	CCOc1ccc(S(=O)(=O)Oc2c(Cl)cc(Cl)c3cccnc23)cc1	i
54	Cc1ccc(C(=O)NC(=S)Nc2ccc(Cl)c(C(=O)O)c2)cc1C	1.9%
55	COC(=O)c1cn(-c2ccccc2)nc1-c1ccc2cc(OC)ccc2c1	i
56	COC(=O)Cc1ccc(NC(=S)NCCN2CCOCC2)cc1	i
57	COc1ccccc1NC(=O)CN1C(=O)NC(C)(C)C1=O	i
58	CCOc1cccc(-c2cc(C(=O)Nc3nnc(C)s3)c3ccccc3n2)c1	i
59	Cc1nnc(SCC(=O)NC(C)c2ccccc2)s1 (stereo not drawn)	i
60	COCCCNC(=O)CN(c1ccc(Cl)cc1)S(=O)(=O)c1ccc(OC)c(OC)c1	i
61	Cc1cc(OCC(=O)NCC(C)CN(C)C)cc(C)c1Cl (stereo not drawn)	i
62	O=C(c1ccccc1)n1cnc(-c2ccccc2)c1-c1ccccc1	0.3%
63	Cn1cccc1/C=C(/C#N)c1nc2ccccc2[nH]1	i
64	O=C(CN(c1ccc(F)cc1)S(=O)(=O)c1ccccc1)NCCC1=CCCCC1	i
65	CCOc1ccc(NC(=O)Cc2cccc3ccccc23)cc1	5.1%
66	COC(=O)c1c(NC(=S)Nc2nc(C)cc(C)n2)sc2c1CCC(C)C2 (stereo not drawn)	i
67	Fc1ccc(-n2c(-c3ccccc3)n[nH]c2=S)cc1	i
68	Cc1ccc(C(=O)Nn2cnnc2)c(C)c1	i
69	CN1CCN(c2nc(-c3ccccc3F)nc3ccccc23)CC1	i
70	NC(=O)CN1C(=O)/C(=c2\sc3nc(-c4cccs4)nn3c2=O)c2ccccc21	1.9%
71	Cc1cccn2c(=O)c3cc(S(=O)(=O)c4ccccc4)c(=N)n(CCCN4CCOCC4)c3nc12	i
72	COc1ccc(C(=S)N2CC(C)OC(C)C2)c(OC)c1 (stereo not drawn)	i
73	COc1ccc(NC(=O)c2nn(C)c(=O)c3ccccc23)cc1	i
74	CCOC(=O)c1c(NC(C)=O)sc2c(OCC(O)CN(CC)CC)c(Br)ccc12 (stereo not drawn)	4.61µg/mL*
75	Fc1ccccc1CSc1nnc(-c2ccccc2)o1	i
76	CCc1ccc(N2CCN(C(=O)C34CC5CC(CC(C5)C3)C4)CC2)cc1	i
77	O=C(O)c1cccc(COc2ccc(CO)cc2Cl)c1	i
78	Cc1ccccc1C(NC(N)=O)c1ccccc1 (stereo not drawn)	18.8%
79	CC(CC(=O)Nc1nnc(C2CCCCC2)s1)c1ccccc1 (stereo not drawn)	0.1%
80	FC(F)(F)c1ccccc1NC(=S)NCc1cccnc1	i

Rewritten field by field: 4 of the compounds above.
#49 CCCOc1ccc(C(N)=O)cc1OC
  Mtb growth: 0.7%

#50 CCc1ccc(CCC(=O)Nc2ccc(OC)cc2)o1
  Mtb growth: ?

#51 Nc1cc(=O)[nH]c2nnc(SCc3ccccc3)n12
  Mtb growth: i

#52 Cc1ccc(C(=O)Oc2ccc(C(C)C)cc2)cc1
  Mtb growth: i

Remaining list, next part:
no.	SMILES	Mtb growth
81	CCOC(=O)c1nc(NC(=O)c2ccc(Cl)cc2)sc1C	i
82	CCOC(=O)c1cc(CC)sc1N1C(=O)CC(Sc2ccccc2C(=O)O)C1=O (stereo not drawn)	i
83	C/C(=N/OCO/N=C(\C)c1ccccc1F)c1ccccc1F	1.5%
84	CC(C)(C)c1ccc(OCC(O)CNS(=O)(=O)c2ccc(Br)cc2)cc1 (stereo not drawn)	i
85	CC(NC(=O)c1ccccc1)c1nnc(SCC(=O)Nc2c(Cl)cc(Cl)cc2Cl)n1C (stereo not drawn)	i
86	COc1ccc(CC(CC(=O)O)C(=O)Nc2ccc(Cl)c(Cl)c2)cc1 (stereo not drawn)	i
87	COc1ccc(S(=O)(=O)N2CCN(c3cccc(Cl)c3C)CC2)cc1OC	5.2%
88	CCOc1ccc(C(=O)Nc2cc3nn(-c4ccccc4)nc3cc2C)cc1Br	i
89	O=C(Cn1cnc2ccccc2c1=O)Nc1ccc(OC(=O)c2ccncc2)cc1	i
90	CCN(CC)S(=O)(=O)c1ccc(C(=O)NC(C(=O)OC)C(C)C)cc1 (stereo not drawn)	0.3%
91	Cc1ccc(N(Cc2ccc(C(=O)N3CCN(c4ccccc4)CC3)cc2)S(C)(=O)=O)cc1C	i
92	COCCn1c(SCC(=O)Nc2ccccc2F)nnc1-c1ccccc1	i
93	Cn1c(SCC(=O)N2CCN(c3cccc(Cl)c3)CC2)nnc1-c1ccc(NC(=O)COc2ccccc2)cc1	i
94	Cc1cc(C)nc(N/C(=N/S(=O)(=O)c2ccccc2)N2CCCc3ccccc32)n1	i
95	CCCNC(=O)COc1ccccc1OC	0.9%
96	Cc1ccc(S(=O)(=O)N(Cc2ccc(Cl)cc2)c2ccccc2C(=O)NCc2ccco2)cc1	1.7%
97	O=C1C2=C(NC3=C(C(=O)c4ccccc43)C23C(=O)c2cccc4cccc3c24)c2ccccc21	i
98	Cc1c(NC(=O)CSc2nc3ccccc3s2)c(=O)n(-c2ccccc2)n1C	i
99	CCN(CC)CC(=O)Nc1cccc(OC)c1	i
100	COC(=O)c1ccc2c(=O)n(CCc3c[nH]c4ccc(OC)cc34)c(=S)[nH]c2c1	i
101	O=C(CN1C(=O)c2ccccc2C1=O)Oc1ccc(C(=O)Nc2ccccc2)cc1	i
102	COc1cccc(C2C(C(=O)c3cc4ccccc4o3)=C(O)C(=O)N2CCCN(C)C)c1OC (stereo not drawn)	0.9%
103	CCOC(=O)COc1c(OC)cc(Cl)cc1C1NC(=S)NC(C)=C1C(C)=O (stereo not drawn)	i
104	CCc1ccc(C(=O)Nc2ccc(I)cn2)cc1	14.0%
105	O=C(Cc1ccc(Cl)cc1)NC(=S)Nc1cccc2c(O)cccc12	2.4%
106	Nc1nc(SCc2ccc3c(c2)OCO3)n[nH]1	i
107	CCOc1ccc(NC(=O)CSc2n[nH]c(-c3ccc(Cl)cc3)n2)cc1	21.9%
108	Cc1c(C(=O)Nc2ccc(OC(F)F)cc2)oc2ccc(F)cc12	2.3%
109	CCOc1ccc(C(=O)CSc2nnc(-c3ccncc3)n2-c2ccc(C)cc2)cc1	i
110	O=C(CSc1nnnn1-c1ccccc1Cl)Nc1ccccc1F	i
111	COc1cccc2cc(C(=O)Nc3ccc(Oc4ccccc4)cc3)c(=O)oc12	i
112	O=C(Nc1nnc(SCc2ccc(F)cc2)s1)c1ccccc1[N+](=O)[O-]	37.2%
113	CCn1ncc(Br)c1C(=O)Nc1ccc(F)cc1F	i
114	O=C(c1cccc2c1NC(c1ccc(Br)cc1)C1CC=CC21)N1CCOCC1 (stereo not drawn)	i
115	O=C(CN1C(=O)COc2ccc(Cl)cc21)NCc1ccccc1	i
116	CCOc1ccccc1NC(=O)CSC1=C(C#N)C(c2ccccc2F)CC(=O)N1 (stereo not drawn)	i
117	CCOC(=O)c1c(-c2ccc(OC)cc2)csc1NC(=O)c1ccc(OC)c(OC)c1	i
118	O=C(O)CCn1c2c(c3ccccc31)CCCC2	i
119	O=C(N1CCOCC1)N1CCN(c2ccc(Cl)cc2)CC1	i
120	O=c1c(Cl)c(N2CCNCC2)cnn1-c1ccccc1	i
121	COc1ccc(NC(=O)c2ccc(CSc3ccccc3)cc2)cc1Cl	i
122	OC(COc1ccccc1)CSc1ncn[nH]1 (stereo not drawn)	1.0%
123	CCCCOC(=O)c1cccc(NC(=O)c2cccc(Cl)c2)c1	4.03µg/mL*
124	O=S(=O)(NCCc1ccccc1)c1cccs1	i
125	CCOc1ccc(OCCOCCN2CC(C)OC(C)C2)cc1 (stereo not drawn)	1.6%
126	CCn1c(SCC(=O)Nc2ccc(Br)cc2C)nnc1C(C)NC(=O)c1ccc(Cl)cc1 (stereo not drawn)	i
127	COC(=O)c1ccccc1OCCCCN1CC(C)OC(C)C1 (stereo not drawn)	i
128	CCOc1ccc(C(=O)Nc2ccccc2C#N)cc1	3.2%
129	CCc1c(C)c2ccc(OCC(=O)C(C)(C)C)c(C)c2oc1=O	i
130	COc1ccc(C(=O)Nc2ccc3c(c2)nc2n3CCN(Cc3ccccc3)C2)cc1	1.6%
131	COc1cccc(N2CC(C(=O)Oc3ccc(-c4ccccc4)cc3)CC2=O)c1 (stereo not drawn)	i
132	Clc1ccc2c(c1Cl)NC(c1ccccn1)C1CC=CC21 (stereo not drawn)	0.9%

Reprinted at random: 5 compounds from above, in no set order.
no.	SMILES	Mtb growth
99	CCN(CC)CC(=O)Nc1cccc(OC)c1	i
74	CCOC(=O)c1c(NC(C)=O)sc2c(OCC(O)CN(CC)CC)c(Br)ccc12 (stereo not drawn)	4.61µg/mL*
1	O=C(CN1C(=O)CN(c2ccc(Br)cc2)C1=O)Nc1ccc2ccccc2c1	i
100	COC(=O)c1ccc2c(=O)n(CCc3c[nH]c4ccc(OC)cc34)c(=S)[nH]c2c1	i
81	CCOC(=O)c1nc(NC(=O)c2ccc(Cl)cc2)sc1C	i

This is a subset; count on the stated rates, not on these rows.
